# Rango-impB inh: qHTS Assay for Inhibitors of Rango (Ran-regulated importin-beta cargo) - Importin beta complex formation | Importin subunit beta-1 (Homo sapiens), Q14974 | Rango CFP/YFP FRET sensor + importin beta, 45 min | Potency, µM (doses to about 92.2 µM), for the others: at the highest dose inhibition of complex formation | hit rate 0.031% among 340,000 | AID 540263, 2011; active = rising FRET ratio curve, often small or poorly fitted; inconclusive = mostly compound fluorescence or quenching in the first reads; inactive = flat curves in all reads;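 also: potency is read from the fitted curve at half-maximal effect; 0% = DMSO wells and 100% = buffer wells lacking importin beta; nearly all actives have a fitted effect of over 15% in size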
#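 Inhibition scored from the CFP 486 nm/YFP 530 nm FRET ratio 45 min after adding 0.125 microM importin beta to 50 nM Rango biosensor preincubated 5 min with compound (room temperature, PBS with DTT, Tween-20, BSA). No-importin wells as positive control.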
# GLA inh pH 4.5: qHTS Assay for Inhibitors of Human alpha-Galactosidase at pH 4.5; AID 1467, 2008; Alpha-galactosidase A (Homo sapiens), P06280; activity change, negative = inhibition, % at 105 µM; 230,000 tested, under 10 active; purified enzyme, 4-MU-alpha-Gal fluorescence, pH 4.5; inconclusive = small, poorly fitted or top-dose-only inhibition, or a rising curve; inactive = flat fitted curve, though single readings scatter; no compound was filed as active;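 also: 0% = full activity with enzyme and -100% = basal without enzyme; dose as in the result columns while the protocol names 77 µM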
# Target sequence (P06280 whole entry, looked up): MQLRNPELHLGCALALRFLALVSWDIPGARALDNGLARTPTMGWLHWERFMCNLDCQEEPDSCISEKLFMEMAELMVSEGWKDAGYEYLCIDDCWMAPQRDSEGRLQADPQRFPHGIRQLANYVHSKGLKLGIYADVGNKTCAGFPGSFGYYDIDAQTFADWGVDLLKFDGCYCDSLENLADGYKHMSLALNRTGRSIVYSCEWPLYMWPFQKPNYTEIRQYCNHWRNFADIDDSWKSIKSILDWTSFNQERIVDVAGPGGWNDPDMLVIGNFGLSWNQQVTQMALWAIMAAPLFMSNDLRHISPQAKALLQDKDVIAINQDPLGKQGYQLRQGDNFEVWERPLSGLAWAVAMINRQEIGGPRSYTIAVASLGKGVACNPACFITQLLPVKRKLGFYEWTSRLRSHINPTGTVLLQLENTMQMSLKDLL
# miR-21 FLuc: qHTS Assay for Modulators of miRNAs and/orActivators of miR-21; HeLa miR-21 FLuc reporter, luciferase, 48 h; Potency, µM (doses to about 38.3 µM), for inactives: top-dose reporter change, positive = more light; 340,000 tested, under 10 active; active = well fitted rising curve with a large enough effect; inconclusive = small, poorly fitted or top-dose-only effect; inactive = no such curve, though single readings can be large or run the other way;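 also: % of control where 0% means no effect; miR-21 action dims this reporter so a rising signal means less miR-21 action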
#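 HeLa cells endogenously expressing miR-21, stably carrying CMV-driven firefly luciferase with a downstream miR-21 binding site, 2000 cells/well. Titrations up to approximately 40 uM, 48 hours; luciferase luminescence read.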
# Rango dissoc inh: qHTS Assay for Inhibitors of RanGTP induced Rango (Ran-regulated importin-beta cargo) - Importin beta complex dissociation; Snurportin-1 (Homo sapiens) + GTP-binding nuclear protein Ran (Homo sapiens) + Importin …; hit rate 0.071% among 340,000; Biochemical FRET Rango-importin beta, RanGTP-induced dissociation; AID 540253, 2011; Potency, µM (highest dose often 46.1 µM), for the others: top-dose activity change, negative = inhibition; active means falling FRET ratio curve, often poorly fitted, with flat reads before Ran was added; inconclusive means other falling curves, or compound fluorescence or quenching; inactive means flat or rising ratio curve;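 also: potency is read from the fitted curve at half-maximal effect; % of control where 0% means no effect; nearly all actives have a fitted effect of over 45% in size; -100% = wells without RanGTP and RCC1; the record marks most hits as doubtful in a second field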
#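 Recombinant Rango FRET biosensor (EYFP–snurportin 1 IBB–cerulean CFP10) at 0.1 uM premixed with 0.25 uM importin beta in PBS, 1 mM DTT, 0.02% Tween-20, 0.1% BSA. Compound added 5 min; RanGTP-RCC1 (0.6 uM Ran, 2 mM GTP, 0.2 uM RCC1) then triggers release, read at 45 min.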
# * hit, by the source's call; ? = inconclusive; / = no result given; & = joins results of further samples; [ ] = remark or other dose.
Rango-impB inh,GLA inh pH 4.5,miR-21 FLuc,Rango dissoc inh,mol
3.8%,-17,-7%,11%,O=C(CSc1nc2ccccc2[nH]1)NCC1CCCO1 (stereo not given)
0.1%,/,2%,-16%,COc1ccc(/C=N/NC(=O)c2cc[n+]([O-])cc2)cc1
-1.3%,2,1%,-11%,O=S(=O)(c1ccc(F)cc1)N1CCN(C(=S)NCc2ccco2)CC1
-0.8%,/,0%,13%,CCOc1cccc(CN2CCCC(C(=O)Nc3ccc(-c4ccn[nH]4)cc3)C2)c1O (stereo not given)
-0.1%,-20,-2%,-17%,Cc1ccc(-c2nnn(CC(=O)N(Cc3cccs3)C(C(=O)NC(C)(C)C)c3ccco3)n2)o1 (stereo not given)
-0.6%,/,2%,-11%,CC/C(=N\Nc1ccc([N+](=O)[O-])cc1[N+](=O)[O-])c1ccc(O)cc1
0.7%,-9,-13%,-4%,COc1cc(CNCCc2ccc(F)cc2)ccc1OCc1ccc(Cl)nc1
-0.5%,-2,0%,4%,O=C(O)CSCC(=O)N1CCN(S(=O)(=O)c2ccccc2)CC1
0.1%,/,/,-15%,COCCn1c(C)cc(C(=O)COC(=O)c2cccnc2SC)c1C
2.5%,-2,-8%,-1%,O=C(c1ccccc1CCc1ccccc1)N1CCOCC1
1.5%,4,-3%,-11%,CN1/C(=C\C(=O)COC(=O)C2COc3ccccc3O2)C(C)(C)c2ccccc21 (stereo not given)
?,/,-21%,-17%,O=C(C[n+]1cccc2ccccc21)c1ccc(Cl)cc1
4.6%,-1,-6%,-6%,Cc1cccc(NC(=O)CCNS(=O)(=O)c2cccc3nsnc23)c1
-3.2%,1,-14%,1%,Cc1ccc(C(=O)CNc2ccc(Br)cc2)cc1
6.4%,/,1%,5%,Cc1ccc(NC(=O)CSc2nc(-c3ccco3)nc3cc(=O)[nH]n23)c(Cl)c1
?,-3,0%,?,N#C/C(=C\c1c(N2CCCCC2)nc2ccccn2c1=O)S(=O)(=O)c1ccccc1
-0.6%,-16,27%,-27%,COc1ccc(/C=C/C(=O)c2cc(Br)ccc(=O)c2O)cc1
-2.2%,/,-1%,1%,COc1ccccc1NC(=O)Cc1nnc(SCC(=O)c2ccccc2)n1C
-0.6%,1,-1%,-3%,COc1cc(OC)c(C(=O)NCCCN2CCOCC2)cc1OC
-3.4%,-5,8%,7%,O=C(NC(=S)NCc1cccnc1)c1ccc([N+](=O)[O-])cc1
1.3%,1,-3%,16%,O=C(Cn1nnc(-c2cccs2)n1)NNC(=O)c1ccccc1Cl
-0.2%,/,/,13%,CCc1ccc(OCC(=O)NNC(=O)C2CCC2)cc1
-4.1%,1,1%,14%,Cc1ccoc1C(=O)N1CCCC(CCC(=O)N2CCN(c3ccccn3)CC2)C1 (stereo not given)
-4.2%,-1,-1%,18%,Cc1cc(C)c(NC(=O)CCCOC(=O)C2=COCCO2)c(C)c1
0.2%,/,/,1%,C[C@H](CO)N1C[C@H](C)[C@@H](CN(C)CC2CCCCC2)Oc2c(NS(=O)(=O)c3cn(C)cn3)cccc2C1=O

# Three compounds picked at random from those above:
Rango-impB inh,GLA inh pH 4.5,miR-21 FLuc,Rango dissoc inh,mol
-0.6%,/,2%,-11%,CC/C(=N\Nc1ccc([N+](=O)[O-])cc1[N+](=O)[O-])c1ccc(O)cc1
?,/,-21%,-17%,O=C(C[n+]1cccc2ccccc21)c1ccc(Cl)cc1
1.3%,1,-3%,16%,O=C(Cn1nnc(-c2cccs2)n1)NNC(=O)c1ccccc1Cl

# The list continues:
Rango-impB inh,GLA inh pH 4.5,miR-21 FLuc,Rango dissoc inh,mol
-3.2%,/,8%,-7%,O=C(CCN1C(=O)C2C3C=CC(C4CC34)C2C1=O)Nc1ccc(Cl)cc1O (stereo not given)
-2.5%,3,2%,0%,CSc1ccc(/C=C/C(=O)OCC(=O)NC(C)C)cc1
2.9%,-11,-14%,-9%,O=S(=O)(c1cccc(F)c1)N1CCN(Cc2ccc3c(c2)OCO3)CC1
0.9%,/,/,-14%,CN(CC(=O)Nc1ccc(F)c(F)c1F)C(=O)c1n[nH]c(=O)c2ccccc12
1.3%,/,-20%,-2%,COc1ccc(NC(=O)C/C(C)=N/NC(=O)c2cnccn2)cc1Cl
5.3%,-9,-17%,8%,CC(C)NCCOCCOc1ccc(Cl)cc1Br
-1.1%,/,-1%,22%,COc1ccc(S(=O)(=O)N2CCCCC2)cc1NC(=O)c1cccs1
3.6%,-3,3%,15%,CCCC(=O)Nc1cc2c(cc1C(=O)c1ccccc1)OCCO2
1.3%,3,-23%,2%,CCSc1nc2ccccc2n1Cc1nc(N)nc(N(C)C)n1
0.6%,4[21.1 µM],0%,2%,CC1CCc2nc3ccc(S(=O)(=O)N4CCC(C(=O)N5CCCCCC5)CC4)cc3c(C(=O)O)c2C1 (stereo not given)
-1.4%,/,/,-1%,COc1ccc(OCC(=O)OCC(=O)Nc2ccc3[nH]c(=O)[nH]c3c2)cc1
0.3%,/,2%,-15%,COc1ccccc1C(C(=O)NCc1ccc(F)cc1)N(C(=O)c1csnn1)C1CC1 (stereo not given)
1.2%,/,5%,-17%,CCCCC(CC)C(=O)Nc1ccc(S(=O)(=O)N2CCCC2)cc1 (stereo not given)
-2.9%,-2,8%,-3%,Cc1ccc(SCC2(O)CCN(S(=O)(=O)c3ccc(Cl)cc3)CC2)cc1
-3.3%,/,4%,-18%,CCCCN(C)Cc1cc(=O)oc2ccc3ccccc3c12
1.6%,/,-7%,1%,COc1ccc(-c2csc(=NCCO)n2-c2ccccc2)cc1
/,5,0%,/,O=C(Oc1ccc(OC(=O)N2CCCCC2)cc1)N1CCCCC1
-1.0%,-4,4%,17%,O=C(COc1ccccc1-c1ccccc1)NCc1ccco1
-2.6%,-1,-3%,7%,CCn1c(CCNC(=O)c2cccs2)nnc1SCC(=O)NC1CCCCC1
2.0%,3,-4%,12%,Cc1cc(C)n2nc[n+](C)c2n1
2.5%,-8,-24%,4%,CCc1cc(C(=O)COc2ccccc2F)c(O)cc1O
-1.3%,/,-1%,5%,Cc1nn(C)cc1S(=O)(=O)Nc1ccc(F)c(F)c1
-1.1%,2,-4%,0%,CCC(CCC(=O)Nc1ccn(-c2ccccc2)n1)C(=O)O (stereo not given)
3.8%,-2,-20%,-3%,COc1ccc(OC(=O)c2cn(C)nc2C(F)(F)F)cc1
3.9%,-4,1%,-9%,O=C(O)CC12C[C@H]3C[C@@H](C1)CC(n1ncc(N4CCN(c5ccccc5)CC4)c(Cl)c1=O)(C3)C2

# Sorted by formula weight (low to high): part of the list above.
Rango-impB inh,GLA inh pH 4.5,miR-21 FLuc,Rango dissoc inh,mol
0.1%,/,2%,-16%,COc1ccc(/C=N/NC(=O)c2cc[n+]([O-])cc2)cc1
/,5,0%,/,O=C(Oc1ccc(OC(=O)N2CCCCC2)cc1)N1CCCCC1
-4.2%,-1,-1%,18%,Cc1cc(C)c(NC(=O)CCCOC(=O)C2=COCCO2)c(C)c1
1.5%,4,-3%,-11%,CN1/C(=C\C(=O)COC(=O)C2COc3ccccc3O2)C(C)(C)c2ccccc21 (stereo not given)

# New compounds follow.
Rango-impB inh,GLA inh pH 4.5,miR-21 FLuc,Rango dissoc inh,mol
-3.5%,/,/,3%,CCOc1ccc(CCNC(=O)c2cccc(-n3cnnn3)c2)cc1OCC
?,/,-7%,?,Cn1c2ccc(F)cc2c2nc3ccccc3nc21
-0.6%,/,/,-16%,NS(=O)(=O)c1ccc(CCNC(=O)COC(=O)/C=C/c2cc(Br)ccc2F)cc1
1.4%,/,9%,12%,Cc1ccccc1OC(C)C(=O)Nc1ccc(S(=O)(=O)N2CCCC2)cc1 (stereo not given)
?,1,1%,-20%,Cc1noc(C)c1CS(=O)(=O)c1ccc(Br)cc1
0.1%,/,-6%,1%,Cc1ccccc1-c1nc(CN2CCC(C(=O)NCCCN3CCCC(C)C3)CC2)c(C)o1 (stereo not given)
4.0%,-18,-5%,-20%,Cc1c(C#N)c(O)n(CCO)c(=O)c1N=Nc1ccccc1
-0.8%,2,0%,11%,O=c1cc(O)nc[nH]1
-2.1%,/,6%,5%,O=C(COc1ccc(S(=O)(=O)N2CCOCC2)cc1)Nc1ccccc1Cl
-0.2%&-0.1%,-7,3%,27%&-17%,COC(=O)C1=C(C)NC(C)=C(C(=O)OC)C1C(=O)OC(C)C(=O)c1ccccc1 (stereo not given)
-0.4%,-1,-40%,3%,Cc1cc(C(=O)NCCC2=CCCCC2)no1
?,/,4%,?,CCOc1cc(NC(=O)C2CC2)c(OCC)cc1NC(=O)c1cc(OC)c(OC)c(OC)c1
1.7%,-26,-10%,-19%,CCOC(=O)Cn1cnc2sc(C(=O)OC)c(C)c2c1=O
2.6%,/,-1%,-10%,O=C1C(NS(=O)(=O)c2ccc(Br)cc2)=C(N2CCCCC2)C(=O)c2ccccc21
-1.8%,6,-16%,8%,O=C1CCCN2N=C(SCC(=O)Nc3nc4ccccc4s3)SC2=N1
0.4%,/,/,-4%,O=C(Nc1cc(S(=O)(=O)N2CCCCC2)ccc1N1CCOCC1)c1ccc(C(F)(F)F)cc1
-1.2%,-4,-72%,-3%,CC(=O)Oc1ccc(C(=O)[C@H]2[C@H]3C(=O)N(c4ccc5ccccc5c4)C(=O)[C@H]3[C@@H]3C=CC=NN32)cc1
-0.1%,/,-3%,-1%,COc1ccc2oc(=O)cc(CN3CCOCC3)c2c1
0.0%,-4,-1%,-13%,Cc1ccc(C2C(C#N)=C(N)Oc3n[nH]c(-c4cccs4)c32)cc1 (stereo not given)
-3.2%,3,-11%,26%,CCCCn1c(C)csc1=Nc1cccnc1
8.2%,/,-1%,-4%,O=C(CCC1CCN(C(=O)c2cc(C(F)(F)F)ccc2Cl)CC1)NC1CC1
1.9%,/,/,-10%,CCOc1ccc(CN(C)C(=O)c2cccc(S(=O)(=O)N3CCCC3)c2)cc1OC
1.1%,1,-1%,2%,COc1ccc(N2C(=O)CC(Sc3nnc(-c4ccccc4F)n3C)C2=O)cc1 (stereo not given)
-0.1%,0,-1%,?,Cc1cc(C)nc(SCc2nnc(SCC(=O)N3CCCc4ccccc43)n2C)n1
-2.6%,/,-2%,18%,CSc1ccc(CN(C)CC(=O)NCCc2ccccc2)cc1
0.8%,/,0%,2%,COC(=O)C1(C)NC(c2ccccc2OC)C2C(=O)N(c3ccccc3)C(=O)C21 (stereo not given)
4.9%,/,6%,0%,COc1cccc(CN2CCN(C(=O)c3ccc(-c4ccccc4)cc3)CC2)c1
-3.6%,/,/,-8%,COc1cc(CC(=O)OCC(=O)Nc2ccc(N(C)C)cc2)cc(OC)c1OC
0.6%,-1,?,-1%,CC1(C)CC(N2CCN(c3ccccc3)CC2)=CC(=[N+]2CCCC2)C1
0.6%,/,-3%,-2%,Cc1ccc(N2CCCC2=O)cc1S(=O)(=O)N1CCOCC1
1.3%,9,-2%,-8%,CS(=O)(=O)Cc1nc2ccccc2oc1=O
-2.0%,-1,-18%,-22%,O=C(Nc1ccccc1C(=O)OCC(=O)c1c[nH]c2ccccc12)c1ccco1
-0.2%,0,0%,19%,O=C(NCc1cccnc1)NC1CC(=O)N(c2ccc3c(c2)OCCO3)C1 (stereo not given)
-2.1%,0,-9%,-10%,Oc1ccccc1/C=N/NC(=S)NC1CC2CCC1C2 (stereo not given)

# Ordered by the number under Rango dissoc inh (largest number first): some entries from above
structure | Rango-impB inh | GLA inh pH 4.5 | miR-21 FLuc | Rango dissoc inh
COC(=O)C1(C)NC(c2ccccc2OC)C2C(=O)N(c3ccccc3)C(=O)C21 (stereo not given) | 0.8% | / | 0% | 2%
CS(=O)(=O)Cc1nc2ccccc2oc1=O | 1.3% | 9 | -2% | -8%
Oc1ccccc1/C=N/NC(=S)NC1CC2CCC1C2 (stereo not given) | -2.1% | 0 | -9% | -10%

# High-throughput results (PubChem BioAssay)

# A portion of the library, so the mix of outcomes need not match the whole.
